Source: PubChem BioAssay
UUG fidelity: modulators of start codon recognition fidelity in yeast. 0.13% of 350,000 active. S. cerevisiae UUG-firefly luciferase reporter, luminescence/redox ratio. activity score, % at 18.7 µM. AID 602363;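 active = replicate mean at a twofold rise or more, about +100% in these data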;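 note: firefly luciferase made from a UUG start codon reports start codon fidelity; reporter light over untreated wells divided by growth signal over untreated wells; some hits fall short of that in this replicate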
MT1-MMP act inh: blocks activation of human MT1-MMP; AID 651647; GFP/RFP ratio change, % at 20 µM; HT1080 RFP-PRO-GFP cells, GFP/RFP ratio fluorescence, overnight; percent of plate control window, DMSO zero; 0.061% of 360,000 active; P50281;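 active = GFP/RFP ratio change of at least 30% with cell ATP level not reduced by more than half and red fluorescence within 50% of control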; note: strong numbers were not always called active
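Assay system: HT1080 RFP-PRO-GFP cells | Dosing: 20 µM single dose, 1% DMSO | Incubation: Cells overnight before dosing, compound overnight, 37 °C, 5% CO2 | Evaluation: GFP/RFP fluorescence ratio | Control set: DMSO-only wells and HT1080 RFP-L50D-GFP cell wells as references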
eIF4H FP inh: inhibitors of RNA binding by human eIF4H | Q15056 | AID 2012 | inhibition, % at 35 µM | 0.94% of 290,000 active | eIF4H fluorescence polarization binding assay;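 active = 50% or more with normal probe brightness, or confirmed in later tests; inconclusive = above 50% with abnormal brightness, or retests that disagree; inactive = below 50% or failed in later tests; about a fifth of its hits are not listed in these tables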;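 note: calls also rest on retests at 20 µM and on dose response follow-up; 0% = protein and probe with vehicle and 100% = probe without protein; strong numbers were not always called active; many hits fall short of the cut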
PABP FP inh: PABP-poly(A) binding inhibition; P11940; PABP-poly(A) RNA binding, fluorescence polarization; inhibition, % at 35 µM; 1% of 290,000 active;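 active = 50% or more with normal probe brightness, or confirmed in later tests; inconclusive = above 50% with abnormal brightness, or retests that disagree; inactive = below 50% or failed in later tests; about a fifth of its hits are not listed in these tables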;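 note: calls also rest on retests at 20 µM and on dose response follow-up; controls were probe without protein and protein plus probe with vehicle; some compounds called inactive have numbers as strong as hits; many hits fall short of the cut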
Rce1 inh: blocks yeast Ras-converting enzyme | yeast membranes, quenched prenylated peptide cleavage fluorescence | calls only | 0.27% of 290,000 active;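 active = fall in fluorescence gain of 50% or more versus controls, with final raw signal at or below 3038400; inconclusive = same 50% fall but final raw signal above 3038400; inactive = fall in fluorescence gain under 50%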;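 note: plate controls were neutral control wells for no effect and wells lacking membranes for full effect; tested at 10 µM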
Target sequence (Q03530 whole entry, looked up): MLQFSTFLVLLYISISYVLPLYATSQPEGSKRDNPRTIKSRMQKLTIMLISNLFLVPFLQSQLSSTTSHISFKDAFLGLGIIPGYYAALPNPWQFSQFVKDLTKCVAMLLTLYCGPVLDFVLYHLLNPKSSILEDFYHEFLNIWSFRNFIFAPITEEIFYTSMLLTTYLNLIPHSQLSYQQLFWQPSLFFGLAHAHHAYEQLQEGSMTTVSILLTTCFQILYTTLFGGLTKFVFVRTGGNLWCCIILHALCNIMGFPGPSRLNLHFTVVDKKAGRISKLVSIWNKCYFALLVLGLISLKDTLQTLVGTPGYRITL
HIV Env fusion: HIV envelope-mediated fusion inhibition. HeLa-JRFL Env/CEM21 cell fusion, luciferase. inhibition, % at 12.3 µM. 1.1% of 360,000 active;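 active = mean replicate inhibition score of at least 50 and every replicate individually at or above 50; inconclusive = only one of the two criteria met; inactive = mean below 50 and not all replicates reaching 50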;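 note: 0% = plate neutral controls and 100% = maraviroc near 300 nM; one replicate is shown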
CSC inhib: blocks cancer stem cells. 1.1% of 300,000 active. AID 2717. cancer stem cell-like cells viability, luminescence. inhibition, % at 7.5 µM;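 active = mean at 75% or more and at least half the replicates too; inconclusive = mean and replicates disagree; tested in HMLE shEcad cells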;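 note: 0% = median of negative and 100% = median of positive control wells; the first replicate is given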
eIF4H FP inh retest: also measured in eIF4H FP inh; calls as there; inhibition, %; compound at 20 µM; confirmation average;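 mean of two retest wells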
PABP FP inh retest: also measured in PABP FP inh; calls as there; inhibition, %; compound at 20 µM; confirmation repeats;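 mean of two retest wells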
MT1-MMP act inh RFP: recorded beside MT1-MMP act inh, whose call it bears; RFP signal change, %; measured here: RFP expression control read;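 0 = vehicle wells; hits needed this value within 50% of zero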
* marks the source's active call; other numbers are inactive results; i = inactive; ? = inconclusive; nt = no result given; + = active, no number; & = joins results of further samples. A portion of the library. The share of hits here may be higher or lower than overall.

SMILES | UUG fidelity | MT1-MMP act inh | MT1-MMP act inh RFP | eIF4H FP inh | PABP FP inh | Rce1 inh | HIV Env fusion | CSC inhib | others
C/C=C(\C)C(=O)O[C@H](c1cc2ccc(=O)oc2cc1OC)[C@@H](O)C(C)(C)O | -18 | -1 | 4 | nt | nt | nt | -23 | -7
CCOC(=O)CSc1nc(C)cc(C)n1 | -12 | 1 | 4 | -8 | 3 | i | nt | -4
COC(=O)c1c(NC(=O)CN2C(=O)NC3(CCc4ccccc4C3)C2=O)sc2c1CCCCC2 (stereo not drawn) | nt | 1 | 0 | -9 | 10 | nt | -23 | -3
N=C1/C(=C\c2coc3ccccc3c2=O)C(=O)N=C2SC=CN12 | -3 | -84 | 5 | ? | ? | i | 13 | 40
Clc1ccc(-n2nnnc2SCc2c(-c3ccccc3)nc3sccn23)cc1 | -20 | -4 | -4 | -5 | 7 | i | 33 | 0
Cc1ccc(F)cc1C(=O)N1CCCCC1c1cc(C(=O)Nc2ccc(F)c(Cl)c2)no1 (stereo not drawn) | -3 | -5 | -10 | nt | nt | nt | 12 | nt
CC(C)c1ccc(NS(=O)(=O)c2ccc(Cl)nc2)cc1 | nt | 2 | -4 | -10 | 3 | i | -63 | 22
COc1cc2c(cc1OC)CN(C(=O)COc1ccc(C#N)cc1)CC2 | 2 | 3 | 2 | 6.8* | 64* | i | nt | -8 | eIF4H FP inh retest=94*;PABP FP inh retest=95*
COc1cc(-c2nnc(SCc3cccnc3)n2C)cc(OC)c1O | -9 | -1 | -4 | -8 | 3 | i | nt | -10
C=CCn1c(C)nnc1SCC(=O)Nc1nc(C)c(C(=O)N(C)C)s1 | -10 | -1 | 0 | -12 | -4 | i | 51 | -7
O=C(CO/N=C/c1ccc(OC(F)F)cc1)NCc1cccs1 | 4 | 1 | 4 | -4 | 4 | i | 28 | -7
CN(C)S(=O)(=O)c1ccc(Cl)c(C(=O)Nc2cccc([N+](=O)[O-])c2)c1 | nt | -6 | -22 | -2 | -5 | i | 16 | -1
CCC1CCCCN1C(=O)CSc1nnc(CNC(=O)c2cc(OC)c(OC)c(OC)c2)o1 (stereo not drawn) | 4 | 3 | 6 | 12 | 8 | i | -68 | -1
O=C(Cc1ccc(Br)cc1)OCC(=O)c1ccc[nH]1 | 12 | 3 | -6 | nt | nt | nt | nt | -11
CCOC(=O)c1ccc(NC(=O)c2nc[nH]c2C(=O)N[C@@H](C)C(=O)OC(C)(C)C)cc1 | -18 | 0 | -12 | 2 | 2 | i | 15 | -5
COc1ccc(CNC(=S)Nc2ccc(Br)cc2)cc1 | -22 | 5 | -3 | -5 | -15 | i | -13 | 4
CC(NC(=O)c1cncc(Br)c1)c1ccc(S(N)(=O)=O)cc1 (stereo not drawn) | -38 | 0 | 3 | 6 | -15 | i | nt | 0
Cc1cc(C(=O)c2ccc3ccccc3c2)c(C)o1 | -11 | 1 | 1 | nt | nt | i | 4 | 12
CC1(C)SC(=Nc2ccccc2)N(S(=O)(=O)c2ccccc2)C1=O | -13 | 2 | 4 | -2 | 4 | i | nt | -1
O=C1OCCC1Sc1nc2ccccc2c(=O)n1Cc1ccccc1 (stereo not drawn) | nt | 0 | 1 | -6 | 2 | i | 4 | -3
CC/C(O)=C1\C(=O)CC(C)(C)CC1=NCCc1nc2ccccc2[nH]1 | nt | 0 | 1 | -6 | -1 | i | 7 | -10
O=P(Cc1ccncc1)(c1ccccc1)c1ccccc1 | nt | -2 | 1 | -2 | -7 | i | nt | -9
CCOC(=O)Nc1sc(=S)n(C)c1C | 64 | 5 | 4 | 0 | 0 | i | nt | 4
CC(=O)Nc1ccc(NC(=O)CSc2nnc(C)c(=O)n2N)cc1 | -13 | 5 | 4 | 1 | -13 | i | 10 | -10
CC(C)NC(=S)N/N=C/C1=CCC2CC1C2(C)C (stereo not drawn) | nt | 4 | 0 | -7 | -10 | i | -24 | -29
COc1cc(CC(=O)NCC(C)(C)N2CCOCC2)cc(OC)c1OC | -1 | 1 | 1 | 0 | 2 | nt | -7 | 3
CCCc1cc(=O)[nH]c(SCCOc2ccc(OCC)cc2)n1 | -5 | 10 | 1 | 7 | 9 | i | nt | -18
COc1cccc(NC(=O)NC2CCCCCCC2)c1 | -7 | 5 | -2 | -6 | -3 | i | -20 | -5
CCC(=O)N1CCC1(C)C(=O)Nc1cccc(Oc2ccccc2)c1 (stereo not drawn) | -6 | -3 | -4 | nt | nt | nt | 23 | nt
Nc1ccc(CCn2ccnc2)cc1 | -7 | -5 | 1 | 26 | 48 | i | -11 | -2
CC1CCN(S(=O)(=O)N2CCCC(C(=O)NCc3ccc(F)cc3)C2)CC1 (stereo not drawn) | -7 | -6 | -4 | -3 | 1 | i | 0 | -12
C[C@]12C(=O)N(c3ccc(Br)cc3)C(=O)N1[C@H]1c3ccccc3OC[C@@H]1[C@H]2c1ccccc1 | -14 | 6 | -1 | nt | nt | nt | -95 | nt
CC(SCc1ccccc1)C(=O)N/N=C/c1ccc2c(c1)OCO2 (stereo not drawn) | -14 | 3 | -1 | 7 | 4 | i | nt | -16
CCOC(=O)[C@@H]1[C@H]2COc3ccc(Br)cc3[C@@H]2N2C(=O)N(c3ccc(F)cc3)C(=O)[C@]12C | -17 | -4 | 0 | 3 | -13 | i | 3 | -10
CCN1CCN(CCCNC(=O)c2ccc3c(c2)N(Cc2ccc(C)cc2)CCS3)CC1 | -11 | 0 | 0 | -7 | 1 | i | nt | -1
Cc1ccccc1NC(=O)c1ccccc1NC(=O)c1ccco1 | -21 | 0 | 2 | -10 | 0 | i | 4 | -11
COc1ccc(N2CCN(C(CNC(=O)C(=O)NC3CC3)c3ccco3)CC2)cc1 (stereo not drawn) | 2 | -1 | -1 | nt | nt | i | 22 | 0
CC(C)(C)c1ccc(C(=O)OCC(=O)Nc2sc3c(c2C#N)CCC3)cc1 | -6 | 2 | 6 | 0 | 7 | i | nt | 5
CN(C)C(=O)CSc1nc2ccc(N3C(=O)c4ccccc4C3=O)cc2s1 | nt | -2 | 3 | 9 | 11 | i | 12 | -3
CN(C)S(=O)(=O)c1ccc(C(=O)NCC(=O)N/N=C/c2cccs2)cc1 | -21 | 2 | 3 | 8 | ? | nt | 4 | 0
COc1ccccc1OCc1ccc(C(=O)NCc2ccco2)o1 | 20 | -5 | -1 | 2 | -3 | i | nt | -11
C[C@@]12CCC=C[C@H]1[C@H](c1ccc(/C=C/c3ccccc3)cc1F)N(Cc1ccccc1)C2=O | -6 | -7 | -9 | -6 | -1 | + | 14 | 28
O=C(CSCc1ccccc1Br)N/N=C/c1ccc2c(c1)OCO2 | -6 | -2 | -19 | 1 | 6 | i | 9 | 18
CC(C)C(=O)NC(=S)Nc1ccccn1 | -12 | -3 | 0 | 7 | -2 | i | nt | 1
CCN(Cc1ccccc1)C(=O)CN1C(=S)NC(C)(C)CC1C (stereo not drawn) | nt | -1 | 3 | -6 | 8 | i | nt | -14
COc1cc(C(=O)NCCCNc2nc3cc(C)cc(C)c3cc2C#N)cc(OC)c1OC | 1 | 16 | 10 | -3 | 8 | i | -15 | 66
C/C(=C\c1ccc(C)o1)C(=O)c1c(C)cc(C)[nH]c1=O | -19 | 2 | 3 | 23 | 0 | i | -3 | -1
CN(C)C(=O)CSc1nc(-c2cccs2)c(-c2cccs2)[nH]1 | -20 | 2 | 5 | -5 | -6 | nt | 3 | -10
COc1ccc(-c2cc(C(F)(F)F)n3nc(C(=O)O)cc3n2)cc1OC | -11 | 2 | 8 | 9 | 12 | i | nt | -11
Cc1cccc(C)c1NC(=O)CN1CCc2ccccc2C1 | -8 | -2 | 1 | nt | nt | i | -13 | -4
CCOCC(=O)Nc1cc(C(=O)Nc2ccc(F)cc2)ccc1Cl | nt | nt | nt | -8 | -7 | i | nt | -18
O=C(CCc1ccccc1F)N1CCN(c2ccccc2)CC1 | -2 | -1 | 2 | -18 | -1 | i | -16 | -17
COc1cc(O)c2c(=O)cc(-c3ccccc3)oc2c1 | -13 | -3 | -8 | -5 | 8 | i | nt | -4
CCC(=O)N(Cc1ccco1)c1nc(-c2ccc(OC)cc2)cs1 | -16 | 5 | 1 | 10 | 0 | i | nt | -23
Cc1cc(C)cc(NC(=O)Nc2ccc3c(c2)CCC3)c1 | -17 | 1 | 0 | -1 | 3 | i | 15 | 32
Cc1c(CC(=O)N2C[C@H]3C[C@@H](C2)c2cccc(=O)n2C3)c(=O)oc2cc3occ(C(C)(C)C)c3cc12 | -8 | 1 | 2 | -2 | 4 | i | nt | -11
COc1ccccc1-c1csc2ncnc(Sc3nnnn3C)c12 | -10 | -7 | -2 | nt | nt | nt | 44 | -4
O=C(Nc1cccc(Cl)c1Cl)c1ccco1 | -16 | 2 | 5 | nt | nt | nt | -57 | nt
CCCCCn1c(=S)[nH]c2ncccc2c1=O | -6 | 3 | -1 | -11 | -10 | i | -17 | -2
CCOC(=O)/C(=C/c1ccc(F)cc1)NC(C)=O | -12 | 4 | 7 | -9 | 120 | i | -6 | -20 | eIF4H FP inh retest=-4;PABP FP inh retest=4

(more compounds)
SMILES | UUG fidelity | MT1-MMP act inh | MT1-MMP act inh RFP | eIF4H FP inh | PABP FP inh | Rce1 inh | HIV Env fusion | CSC inhib | others
CCn1c(Cc2c(C)[nH]c3ccccc23)nnc1SCC(=O)NCc1ccco1 | -15 | 1 | 5 | 28 | -1 | i | nt | -7
Cc1nn(-c2ccccc2)c(N)c1C1(O)C(=O)Nc2ccccc21 (stereo not drawn) | nt | 0 | 5 | -9 | -3 | nt | -12 | -7
COc1cc([N+](=O)[O-])ccc1NC(=O)CSc1nc2ccccc2n1-c1ccccc1 | nt | nt | nt | -2 | -11 | i | 31 | 21
CCOC(=O)C1(C)CCN1C(=O)c1ccc(N(C)C)cc1 (stereo not drawn) | -7 | -5 | 8 | nt | nt | nt | i | nt
Cc1ccc(CNC(=O)c2ccc(Cl)c(S(=O)(=O)N3CCCCC3)c2)cc1 | -13 | 0 | -9 | nt | nt | nt | ? | nt
CCOC(=O)N1CCN(S(=O)(=O)c2ccc3c(c2)CCN3C(=O)C2CC2)CC1 | -9 | -1 | -6 | -4 | -1 | i | nt | 3
COc1ccc(CCNC(=O)COc2ccc(C)nc2[N+](=O)[O-])cc1 | nt | 0 | -7 | 0 | 5 | i | 8 | 2
COC(=O)c1sc(NC(=O)CSc2nnc(C(C)C)n2C)nc1C | -51 | -5 | -3 | -10 | -1 | i | nt | 0
CC(C)CN(Cc1c(O)ccc2ccccc12)CC(C)C | nt | -1 | 7 | 6 | -2 | i | 8 | -8
Cc1cccc(NC(=O)c2sc3nc(-c4ccc(F)cc4)cn3c2C)n1 | 1 | -3 | -3 | 11 | 20 | i | 24 | -15
CCOC(=O)C1CCN(C(=O)c2ccccc2Oc2ccccc2)CC1 | -16 | -2 | 1 | -9 | -14 | i | -33 | 10
Cc1ccc(S(=O)(=O)N2C[C@@H](C)[C@]3(C2)[C@H](O)[C@H](OC(=O)NCc2ccccc2F)C[C@H]2C(=O)N(c4ccccc4)C(=O)[C@H]23)cc1 | -2 | -5 | -7 | nt | nt | nt | -33 | nt
C[C@@H]1CN([C@@H](C)CO)C(=O)c2cc(Br)cnc2O[C@H]1CN(C)C(=O)Nc1ccccc1 | 5&1&7 | 1 | 5 | nt | nt | nt | -32 | nt
